Screening results as filed in PubChem.
WNV protease inh = inhibitors of West Nile virus NS2B-NS3 protease; WNV NS2B-NS3 protease, fluorogenic substrate Ex360/Em465; stronger effect = lower value; z-score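 (tested at a level between 10 and 100 µM)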; actives 0.18% (n = 65,000); AID 577;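 active = z-score at -3 or under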;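 note: score is relative to mean and spread of the compound wells of a plate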
Target sequence (P06935 1371-1501 limits assumed): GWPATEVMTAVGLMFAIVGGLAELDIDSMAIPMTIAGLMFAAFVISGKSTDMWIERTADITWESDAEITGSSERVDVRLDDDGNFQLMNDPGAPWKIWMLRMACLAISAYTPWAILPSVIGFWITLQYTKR
Target sequence (P06935 1502-1679 limits assumed): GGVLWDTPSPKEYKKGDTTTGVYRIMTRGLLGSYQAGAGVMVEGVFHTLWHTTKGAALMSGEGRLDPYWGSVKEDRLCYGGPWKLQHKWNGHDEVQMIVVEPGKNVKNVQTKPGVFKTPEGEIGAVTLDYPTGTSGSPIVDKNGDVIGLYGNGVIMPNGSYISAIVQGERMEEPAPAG
MT1-MMP promoter = MT1-MMP gene expression reporter suppression – cell-based, luciferase reporter, luminescence (AID 618); MT1-MMP promoter luciferase reporter cells, luminescence; calls from a first round at 10 µM; hits with a dose series show EC50 in µM; actives 0.62% (n = 87,000);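 active = over half of the reporter light lost at 10 µM or EC50 under 50 µM; inactive = the rest and hits that failed the dose series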;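 note: actives suppress MT1-MMP promoter-driven transcription so potencies describe inhibitors; HT1080 fibrosarcoma cells; overnight exposure; toxic or luciferase-blocking compounds were not removed from the actives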
Hsc70 ATP site = Hsc70 inhibitors, probe displacement, primary screen, biochemical, fluorescence polarization (AID 568); 83,000 tested, under 10 active; one-dose displacement, % at 20 µM; IC50 in µM for titrated hits; Hsc70 fluorescence polarization, probe displacement; higher % means a stronger effect; strong numbers were not always called active;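 active = displacement above 50% without optical interference and an IC50 on retest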;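 note: ATPase domain with a fluorescein-tagged ATP probe; 0% = vehicle and 100% = excess ADP; read after one hour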
Active calls of the source: *; i = inactive; · = not tested or not shown. Outcome played no part in choosing rows. Share with any hit: about 0.87%.

item | SMILES | MT1-MMP promoter | Hsc70 ATP site | WNV protease inh
1 | CC(=O)NC12CC3CC(C1)CC(C(=O)OCC(=O)Nc1ncc(Cl)cc1Cl)(C3)C2 | i | 15.7% | -1.11
2 | COc1cc(C(=O)N2CCC(NC(=O)C(Cc3ccc(C(C)C)cc3)NC(C)=O)CC2)cc(OC)c1OC (centres undefined) | i | 6.0% | ·
3 | CCOc1ccc2c(c1)c1nnc(SCC3CCCO3)nc1n2C (centres undefined) | i | -1.0% | 0.25
4 | Cn1cccc1Cc1nnc(SCC(=O)NCc2ccccc2Cl)n1-c1ccc(F)cc1 | i | 1.3% | -0.45
5 | Cc1cc(C)cc(N(CC(=O)NCc2ccco2)C(=O)c2snc(C(N)=O)c2N)c1 | i | 0.3% | ·
6 | O=C(CSc1cccc2cccnc12)N1CCCC1 | i | 0.4% | -0.25
7 | Cc1cccc(NC(=O)CN2C(=O)COc3ccc(Cl)cc32)c1 | i | -3.7% | 1.68
8 | CCOC(=O)C1CCN(S(=O)(=O)c2c(C)n(C)c(=O)n(C)c2=O)CC1 | i | -0.3% | -0.6
9 | COc1ccc(NC(=O)c2ccc3snnc3c2)cc1 | i | 3.7% | ·
10 | Cc1ccc(Cn2c(S(=O)(=O)O)nc3ccccc32)cc1 | i | -1.2% | ·
11 | O=C(CCc1nc(-c2ccccc2F)no1)NCCN1CCc2ccccc2C1 | i | -4.4% | -0.46
12 | Cc1ccc(-c2noc(-c3ccccc3C(=O)N3CCN(C)CC3)n2)cc1 | i | 0.9% | -1.32
13 | Cc1cc(NC(=O)CSc2nc3ccccc3c(=O)n2Cc2ccccc2)no1 | i | 2.4% | 1.43
14 | CCNc1nc(OCCNS(=O)(=O)c2cc(C)ccc2C)nc(N(C)C)n1 | i | -1.9% | -0.89
15 | CCOC(=O)N1CCN(C(=S)NC(C)(C)C)CC1 | i | -0.2% | ·
16 | CC1(C)CC(CC(=O)Nc2ccccn2)C(=O)O1 (centres undefined) | i | -7.5% | -0.1
17 | O=C(Nc1ncccn1)c1cccs1 | i | -0.1% | 2.56
18 | CCOC(=O)c1ccc(NC(=O)c2cccc(S(=O)(=O)N3CCOCC3)c2)cc1 | i | -2.5% | -0.26
19 | Cc1csc(NC(=O)C2CCC(C)(C(=O)O)C2(C)C)n1 (centres undefined) | i | -3.7% | 1.26
20 | CCC(=O)c1ccc(OCC(=O)N2CCc3cc(OC)c(OC)cc3C2)cc1 | i | 1.1% | -0.5
21 | Cc1nn(C)cc1CNC(=O)COc1ccc(Cl)cc1Cl | i | 0.1% | ·
22 | CC(C)CC(c1nnnn1C1CCCC1)N1CCN(c2ccccc2F)CC1 (centres undefined) | i | 0.1% | 0.73
23 | CC(=NCc1ccc2c(c1)OCO2)C1=C(O)c2ccccc2C1=O | i | 1.8% | -0.24
24 | Cc1ccnc(SCCn2c(Br)nc3c2c(=O)[nH]c(=O)n3C)n1 | i | 1.1% | 0.59
25 | CCN(CC)CCCNC(=O)c1sc2nc(-c3ccc(F)cc3)cn2c1C | i | 7.8% | -0.06

Next part
item | SMILES | MT1-MMP promoter | Hsc70 ATP site | WNV protease inh
26 | O=C(Nc1ccc2nn(-c3ccccc3)nc2c1)c1cccnc1 | i | -10.7% | -0.83
27 | CCOC(=O)c1sc(NS(=O)(=O)c2cc(C)ccc2C)nc1C | i | 1.2% | ·
28 | CC1CN(c2nc3ccccc3nc2C(C#N)C(=O)NC2CCCCC2)CC(C)O1 (centres undefined) | i | -211.8% | 0.31
29 | CCOC(=O)N1CCN(c2c(NCC3CCN(Cc4cccc(C)c4)CC3)c(=O)c2=O)CC1 | i | -1.8% | -0.27
30 | CCOc1ccc(C(O)Cn2c(=N)n(CCN3CCCCC3)c3ccccc32)cc1 (centres undefined) | i | 0.4% | ·
31 | COCCN(CC(=O)NC1CCCCC1)C(=O)CSc1nc2ccccc2o1 | i | -3.7% | 0.44
32 | CCOc1ccc(Br)cc1C1NC(=O)c2c(sc3c2CCN(C)C3)N1 (centres undefined) | i | -5.6% | 1.75
33 | CCOC(=O)C(NC(=O)CC)(Nc1sc2c(c1C(=O)OC)CCN(C)C2)C(F)(F)F (centres undefined) | i | 0.0% | -1.2
34 | CCOC(=O)c1[nH]c2ccccc2c1NC(=O)CC | i | 3.2% | -3.98*
35 | Cc1ccccc1C(=O)Oc1ccccc1C(=O)N1CCOCC1 | i | 2.6% | ·
36 | CC(Oc1ccc(Cl)cc1Cl)C(=O)Nc1ncccn1 (centres undefined) | i | -2.0% | 0.14
37 | CCc1noc(N)c1C(=O)Nc1ccc(F)c(Cl)c1 | i | -7.0% | -0.95
38 | COc1ccc(-n2nnnc2Sc2ccc(S(=O)(=O)N3CCOCC3)cn2)cc1 | i | 1.2% | -0.42
39 | COc1nc(N(C)C)nc(N(OC)S(=O)(=O)c2ccccc2Cl)n1 | i | 2.5% | -0.71
40 | CC(C)C(c1nnnn1C1CCCC1)N1c2ccccc2CC1C (centres undefined) | i | -2.2% | -1.01
41 | CCN(CC)CCCn1c(C)cc2c(c1=O)C(c1cccc(Cl)c1)C(C#N)=C(N)O2 (centres undefined) | i | 1.8% | -1.99
42 | Cc1ccc(S(=O)(=O)NC(=O)Nc2ccc(F)cc2)cc1 | i | 0.2% | ·
43 | CCCN(CCC)C(=O)CC(c1ccc(F)cc1)c1ccco1 (centres undefined) | i | -4.4% | -1.85
44 | CCCC(=O)Nc1ccccc1NC(=O)CN(C)S(=O)(=O)c1ccc(C)cc1 | i | 12.3% | 1.23
45 | Cc1nn(-c2cccc(Cl)c2)c2c1C(c1ccncc1)C(C#N)=C(N)O2 (centres undefined) | i | 1.9% | 0.27
46 | CCOC(=O)NCc1cc(-c2nn(C)c(=O)c3ccccc23)ccc1C | i | 2.1% | -0.13
47 | Clc1ccc(Cl)c(Oc2ccc(Oc3nc(Cl)ccc3Cl)cc2)n1 | i | 4.3% | ·
48 | COc1cccc(-c2nc(CSCC(=O)NCC3CCCO3)c(C)o2)c1 (centres undefined) | i | -3.0% | 1.25
49 | COc1ccc(S(=O)(=O)N2CCC(C(=O)N3CCCCC3)CC2)cc1OC | i | 5.0% | 1.99
50 | COc1ccc(C(=O)n2nc(C)c(Br)c2C)cc1 | i | 5.7% | ·

Additional entries.
item | SMILES | MT1-MMP promoter | Hsc70 ATP site | WNV protease inh
51 | O=C(Cc1ccccc1)Nc1ccccc1C(=O)O | i | 2.4% | ·
52 | CCCCCOC(=O)C1[C@H]2C(=O)N(c3ccccc3CC)C[C@]23C=C[C@H]1O3 (some centres undefined) | i | 1.9% | 0.04
53 | O=C(NC1CCCCCCC1)c1ccc(CNc2c(N3CCOCC3)c(=O)c2=O)cc1 | i | -0.9% | 0.16
54 | COc1ccc(NC(=O)c2ccco2)cc1NC(=O)c1cccc(OC(C)C)c1 | i | -1.8% | 0.72
55 | Cc1ccc(-n2c(SCC(=O)Nc3ccc4c(c3)OCO4)nnc2-c2cccs2)cc1 | i | -2.7% | 1.25
56 | Cc1cccc(OCCC(=O)Nc2c(C)n(C)n(-c3ccccc3)c2=O)c1 | i | 3.6% | 1.08
57 | Cc1ccsc1-c1nc(CSCC(=O)N2CCN(c3ccccc3)CC2)c(C)o1 | i | 5.9% | 0.37
58 | NC(=O)C[C@@H]1N[C@]2(C(=O)Nc3ccccc32)[C@@H]2C(=O)N(c3cc(C(F)(F)F)ccc3Cl)C(=O)[C@H]12 | i | 2.2% | 0.76
59 | O=C(c1cc(-c2ccc(Cl)cc2)on1)N1CCOCC1 | i | 1.5% | 0.18
60 | COc1ccc2c(c1)[nH]c1c(=O)n(CCCn3ccnc3)cnc12 | i | 5.3% | ·
61 | CCOC(=O)CNC(=O)CSc1nnc(-c2ccccc2OC)n1CC | i | 2.0% | 0.01
62 | COn1c(-c2ccccc2)nc2c1CCc1nonc1-2 | i | -19.8% | ·
63 | Cn1c(CCc2ccccc2)nnc1SCC(=O)N1CCOCC1 | i | 3.3% | ·
64 | O=S(=O)(N1CCOCC1)N1CCN(c2ccccc2F)CC1 | i | 1.6% | -1.11
65 | CSCC[C@H](NC(=O)OC(C)(C)C)c1nnc(SCC(=O)Nc2ccc(C)cc2C)o1 | i | -0.3% | 0.45
66 | CCC(C)[C@H](NC(=O)Nc1cccc(Cl)c1)C(=O)O (some centres undefined) | i | 2.5% | ·
67 | CN1C(=O)C(O)(CC(=O)c2cccc(-n3cccc3)c2)c2ccccc21 (centres undefined) | i | -2.7% | 0.34
68 | COc1ccccc1OCCCCCc1c(C)n[nH]c1C | i | 3.8% | -0.79
69 | O=C(CNC1C(=O)Nc2ccccc21)Sc1ccccc1 (centres undefined) | i | -0.1% | 0.7
70 | Cc1cc(C(=O)OCC(=O)Nc2nc(-c3ccccc3)cs2)c(C)o1 | i | -2.3% | -1.1
71 | O=C(NCCOC(=O)C1COc2ccccc2O1)c1cccnc1 (centres undefined) | i | -6.0% | 0.02
72 | FC(F)(F)c1cccc(N2CCN(c3nnnn3-c3ccccc3)CC2)c1 | i | 9.2% | -0.97
73 | CCOC(=O)COc1cc(=O)n(CC)c2ccccc12 | i | 2.0% | 0.32
74 | COc1ccc(OC)c(CNc2nc3ccccc3n2CCN2CCCCC2)c1 | i | -3.6% | 0.16
75 | COc1ccccc1N1CCN(C(=O)Nc2cccc(C)c2)CC1 | i | 7.6% | -0.56

(cont.)
item | SMILES | MT1-MMP promoter | Hsc70 ATP site | WNV protease inh
76 | Cc1sc2ncn(CC(=O)OC(C)C(=O)NC(C)(C)C)c(=O)c2c1C (centres undefined) | i | -0.9% | 0.95
77 | COc1ccccc1NC(=O)N1CCN(c2ncccn2)CC1 | i | -1.6% | 1.22
78 | CCOc1ccccc1N1CCN(Cc2ccc(OC)c(OC)c2OC)CC1 | i | -3.4% | 0.24
79 | CC(C)(C)n1nnnc1C(c1cccs1)N(Cc1ccccc1)Cc1cccnc1 (centres undefined) | i | -2.3% | 1.7
80 | O=C(CCSc1ccccc1)Nc1nnc(-c2ccccc2)o1 | i | -2.7% | 2.68
81 | Cc1cc(-c2ccc(Cl)cc2)n2nc(N)nc2n1 | i | -2.2% | 0.6
82 | COc1ccc(C(=O)N2CC=C(c3ccccc3)CC2)cc1S(=O)(=O)N1CCOCC1 | i | 6.5% | -0.8
83 | O=C(CSc1ncnc2nc[nH]c12)c1ccccc1 | i | 7.9% | ·
84 | O=C(Nc1c(-c2ccccc2)nc2ccccn12)c1ccco1 | i | 0.2% | -0.66
85 | CNC(=O)c1cc2c(=O)n3cccc(C)c3nc2n(C(C)C)c1=N | i | 1.1% | 7.78
86 | COc1ccccc1N1CCN(C(=O)C2CCC(Cn3c(=S)[nH]c4ccccc4c3=O)CC2)CC1 (centres undefined) | i | -2.0% | -0.00064
87 | COC(=O)c1ccc(CSc2nc3c(c(=O)n2-c2ccc(C)cc2)SCC3)o1 | i | 0.7% | -1.53
88 | COc1ccc(C(=O)Nc2nc3c(s2)Cc2cc(OC)ccc2-3)cc1 | i | -0.2% | ·
89 | Cn1nnnc1SCc1c(F)cccc1F | i | -6.7% | 0.12
90 | Cc1cccn2c(=O)c(C=O)c(N3CCCCCC3)nc12 | i | 0.6% | ·
91 | CCOC(=O)C1C(=O)C=C(N2CCOCC2)CC1c1cccc(OC)c1 (centres undefined) | i | -2.0% | 0.11
92 | Fc1cccc(Cl)c1Cn1nnc2c(NCc3ccccn3)ncnc21 | i | 0.6% | -0.03
93 | C(=C\c1ccccc1)/CSc1nnc(-c2cnccn2)n1Cc1ccco1 | i | -5.8% | -0.02
94 | CCCC(=O)Nc1sc(C(=O)OC)c(C)c1C(N)=O | i | 0.5% | 1.18
95 | Cc1nc(SCC(=O)NCc2ccco2)nc(C)c1C | i | -1.0% | 1.71
96 | COC(=O)COc1ccc(S(=O)(=O)NCc2ccncc2)cc1 | i | -0.9% | 1.9
97 | COc1ccc(C(=O)Cn2c(N3CCOCC3)nc3c2c(=O)n(C)c(=O)n3C)cc1 | i | -8.5% | 0.49
98 | CC(C)n1cc(NC(=O)C2CC(c3cccc(Br)c3)=NO2)cn1 (centres undefined) | i | 3.6% | ·
99 | COc1ccc(-n2nc(C(=O)O)c3ccccc3c2=O)c(OC)c1 | i | -12.5% | -0.94
100 | Cc1ccc(C(=O)OCC(=O)NCc2ccco2)cc1 | i | 1.6% | ·
101 | c1ccc(-c2nn3c(-c4ccccc4)nnc3s2)cc1 | i | 3.6% | 0.71
102 | Cc1cnn(C(=O)c2oc3ccccc3c2C)c1 | i | 1.0% | -1.13
103 | COc1ccc(OCC(=O)Nc2nnc(C)s2)cc1 | i | 0.0% | ·

Record cards, as listed above. Order of screens: MT1-MMP promoter | Hsc70 ATP site | WNV protease inh
Profile of COc1ccc(C(=O)Nc2nc3c(s2)Cc2cc(OC)ccc2-3)cc1 → i | -0.2% | ·
Profile of COc1ccc(C(=O)N2CC=C(c3ccccc3)CC2)cc1S(=O)(=O)N1CCOCC1 → i | 6.5% | -0.8
Profile of CCOC(=O)C1C(=O)C=C(N2CCOCC2)CC1c1cccc(OC)c1 (centres undefined) → i | -2.0% | 0.11
Profile of CCCC(=O)Nc1sc(C(=O)OC)c(C)c1C(N)=O → i | 0.5% | 1.18
Profile of COC(=O)COc1ccc(S(=O)(=O)NCc2ccncc2)cc1 → i | -0.9% | 1.9

Only Hsc70 ATP site, for some of the entries so far:
| nr | smiles | Hsc70 ATP site |
| --- | --- | --- |
| 80 | O=C(CCSc1ccccc1)Nc1nnc(-c2ccccc2)o1 | -2.7% |
| 81 | Cc1cc(-c2ccc(Cl)cc2)n2nc(N)nc2n1 | -2.2% |
